Screens (PubChem)
Arbovirus anti – antivirals against arbovirus infection, primary screen, cell-based, full library, 10K replicate subset; inhibition, % at 10 µM; arbovirus infection cell-based antiviral screen; 200,000 tested, 0.37% active; AID 1251, 2008;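 active = inhibition from about 30%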;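 note: bluetongue infection of BSR cells; cell survival read as ATP light after 72 h; 0% = infected wells without compound and 100% = uninfected wells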
Mtb bLac sens – beta-lactam sensitization of Mtb H37Rv, H37Rv | M. tuberculosis H37Rv growth with meropenem, percent inhibition; hits of this screen are not shown here | inhibition, % at 25 µM | 330,000 tested, 0.27% active | AID 434955, 2010;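 active = about 74% or more and at least 40 points above the plate without the antibiotic, then above 30% in a dose series; inconclusive = first-round hits that could not be retested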;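 note: growth measured after seven days incubation then overnight dye step; 0% = bacteria only wells and 100% = bacteria with antibiotic; twin plates without the antibiotic show which effects depend on it; some results filed as inactive read as strong as hits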
RecA intein inh – Mtb RecA intein splicing inhibitors, primary screen, biochemical, fluorescence, HTS; inhibition, %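 (about 9 µM by stock and volumes)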; cell-free RecA intein splicing; Protein RecA (Mycobacterium tuberculosis (strain ATCC 25618 / H37Rv)), P9WHJ3; 290,000 tested, 0.75% active; in the data active = inhibition above about 30%; inconclusive = no clear call, values can overlap the other calls;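 note: 0% = vehicle wells and 100% = reference inhibitor control wells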
Target sequence (P9WHJ3 whole entry, looked up): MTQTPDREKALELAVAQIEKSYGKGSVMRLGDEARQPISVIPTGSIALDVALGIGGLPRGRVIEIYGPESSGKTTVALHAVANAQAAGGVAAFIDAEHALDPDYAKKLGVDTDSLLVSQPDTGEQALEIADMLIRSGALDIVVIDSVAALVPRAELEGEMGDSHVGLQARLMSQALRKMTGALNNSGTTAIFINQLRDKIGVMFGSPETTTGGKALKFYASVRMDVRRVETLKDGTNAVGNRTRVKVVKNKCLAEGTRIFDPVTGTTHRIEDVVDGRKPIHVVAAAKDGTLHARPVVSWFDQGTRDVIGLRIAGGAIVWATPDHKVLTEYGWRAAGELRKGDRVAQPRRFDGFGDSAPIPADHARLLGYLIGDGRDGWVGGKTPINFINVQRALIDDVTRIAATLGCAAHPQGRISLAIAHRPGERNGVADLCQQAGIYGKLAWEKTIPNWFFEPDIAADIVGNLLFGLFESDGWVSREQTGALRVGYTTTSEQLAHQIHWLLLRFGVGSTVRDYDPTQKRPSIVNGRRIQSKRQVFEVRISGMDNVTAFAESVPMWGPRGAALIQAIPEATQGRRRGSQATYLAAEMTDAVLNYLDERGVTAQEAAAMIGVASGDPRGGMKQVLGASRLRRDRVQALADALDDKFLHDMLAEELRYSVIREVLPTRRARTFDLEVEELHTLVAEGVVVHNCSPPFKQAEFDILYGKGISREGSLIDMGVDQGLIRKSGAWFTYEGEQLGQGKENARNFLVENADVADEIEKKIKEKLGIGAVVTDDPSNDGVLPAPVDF
YopH PTP inh – YopH tyrosine phosphatase inhibitors, primary screen, biochemical, fluorescence Ex485/Em525. inhibition, %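 (about 10 µM by stock and volumes)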. YopH tyrosine phosphatase [Yersinia enterocolitica]. 140,000 tested, 0.16% active;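 active = inhibition of 50% or more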;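 note: controls were vehicle for no effect and minimum signal wells for full effect; inactives centre near -20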
Mtb H37Rv – M. tuberculosis H37Rv growth inhibitors, H37Rv strain (AID 1626). inhibition, % at 10 µM; hits with a dose series show IC50 in µM. 220,000 tested, 0.95% active. M. tuberculosis H37Rv growth inhibition; higher % means a stronger effect;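 active = confirmed in a dose series; inconclusive = inhibition above 80% but not taken into the dose series; inactive = below 80% or under 30% at every dose of the series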;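 note: bacteria incubated seven days before Alamar blue readout; 0% = bacteria only wells and 100% = bacteria with antibiotic wells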
Arbovirus anti repeat – recorded beside Arbovirus anti, whose call it bears; inhibition, %; measured here: 10K subset replicate screen; many hits read low in the repeat;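 first of two repeat runs on a subset; 0% = infected and 100% = uninfected wells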
Active calls of the source: *; ? = inconclusive; nt = no result given. The list is partial (hit frequency here may not be typical).

SMILES	Arbovirus anti	Mtb bLac sens	RecA intein inh	YopH PTP inh	Mtb H37Rv	others
Cc1c(C(=O)NCC2CCCO2)oc2c(Cl)cccc12 (centres undefined)	nt	-4	-0.1	nt	nt
COCCNC(=O)CSc1ccccc1C(=O)O	-1	-1	nt	nt	5%
CCCC1O[C@@H]2CC3C4CCC5=CC(=O)C=C[C@]5(C)C4C(OC(C)=O)C[C@]3(C)[C@]2(C(=O)COC(C)=O)O1 (some centres undefined)	11	?	6.9	-38	6%
O=C(NCCc1ccccn1)c1cc2ccccc2o1	nt	4	-1.6	nt	nt
Oc1ccccc1CN(CCc1ccccc1)Cc1ccccc1	nt	9	12	nt	nt
NC(=O)CN1C(=O)C(O)(CC(=O)c2ccccc2O)c2ccccc21 (centres undefined)	-5	-6	4.9	-13	-11%	Arbovirus anti repeat=-5
CC(=O)N(Cc1cc(=O)[nH]c2ccccc12)c1ccc(C)cc1C	nt	-8	2.7	nt	nt
CC(C)(C)NC(=S)N/N=C/c1cc(Br)c(O)c(Br)c1	nt	6	1.2	nt	7%
COc1ccc(N2CCN(c3ncnc4scc(-c5ccc(F)cc5)c34)CC2)cc1	nt	-4	16	nt	nt
Cc1ccccc1NC(=O)CCN1CCCCCC1	nt	1	0.0	-50	-7%
COC(=O)[C@@H]1CCCN1C(=O)c1cc(COc2cccc3cccnc23)on1	nt	-10	-0.9	nt	nt
Cc1nn(C)cc1CNC(=O)c1cccc(Br)c1	-5	-7	0.8	-30	-8%
Cc1ccc(-c2noc(CC(c3ccccc3)c3ccccc3)n2)cc1	12	0	3.3	-21	-2%
CC(=O)c1cccc(NC(=O)C2CC(c3ccc(F)cc3)=NO2)c1 (centres undefined)	5	1	-0.7	-11	-5%
CCOC(=O)c1[nH]c(C)c(/C(O)=C2\C(=O)C(=O)N(CCN(C)C)C2c2ccncc2)c1C (centres undefined)	4	-14	-0.3	-27	0%
CCCn1nnnc1SCC(=O)N1CCN(C(=O)c2ccco2)CC1	8	4	-0.3	-3	-5%
O=C1c2cccnc2C(=O)N1Cc1ccc2c(c1)OCO2	2	1	-0.6	-21	-1%
O=C(/C=C/N1CCOCC1)c1ccc(-c2ccccc2)cc1	5	-8	2.3	-5	-5%	Arbovirus anti repeat=19
COc1cccc(OC)c1C(=O)OCC(=O)NCC(C)C	0	-2	-1.6	nt	-3%
COC(=O)CCC(=O)Nc1sc(C)c(C)c1C(N)=O	0	-5	-3.2	-49	0%
CC(C)(C)C(=O)Nc1nnc(COc2ccc(Cl)cc2)s1	nt	8	2.9	nt	7%
COC(=O)c1cc(CSc2nnc(NC3CCCCC3)s2)oc1C	16	-4	2.1	-35	2%
O=[N+]([O-])c1ccc(S(=O)(=O)NCC(c2ccco2)N2CCc3ccccc3C2)cc1 (centres undefined)	nt	0	5.4	nt	nt
Cc1ccc(C23CCC(=O)N2C(C(=O)O)CS3)c(C)c1 (centres undefined)	nt	-2	-1.5	nt	nt
Cc1ccc(C2NC(=O)NC(O)(C(F)(F)F)C2C(=O)c2cccs2)o1 (centres undefined)	16	12	0.0	-46	-5%

Other compounds follow.
SMILES	Arbovirus anti	Mtb bLac sens	RecA intein inh	YopH PTP inh	Mtb H37Rv	others
CC(=O)N/C(=C\c1ccc(F)cc1)C(=O)NC(Cc1ccccc1)C(=O)O (centres undefined)	nt	-5	0.0	nt	-15%
CCCCn1c(N)c(N(CCOC)C(=O)COC(=O)c2ccccc2OCC)c(=O)[nH]c1=O	nt	-10	-1.1	nt	nt
Cc1nn(-c2ccccc2)c2c1C(c1ccc(Cl)cc1)N(c1ccccc1)C(=O)N2 (centres undefined)	-16	86	6.2	-11	63%
Cc1ccc(SCCOCCN2CC(C)OC(C)C2)cc1 (centres undefined)	nt	-7	0.4	nt	9%
Cc1ccc(/C=N\NC(=O)C2COc3cc4ccccc4cc3O2)o1 (centres undefined)	-5	9	5.0	-27	-3%
O=C(CN1c2ccccc2Sc2ccccc21)N/N=C/c1ccc([N+](=O)[O-])cc1	nt	49	3.5	nt	47%
Cc1cccc(NC(=O)Cn2nnc(-c3cccs3)n2)c1C	-5	5	8.3	-37	-7%
CCN(CC)S(=O)(=O)c1cc(C(=O)Oc2cccc(-c3cnc4ccccc4n3)c2)ccc1OC	1	87	-1.0	4	?
CCc1ccccc1NC(=O)C1=CC(c2ccc(OC)c(OC)c2)=NS(=O)(=O)N1C	nt	-2	-2.9	nt	nt
CCOC(=O)N1CCN(c2ccc(F)cc2[N+](=O)[O-])CC1	-2	-5	0.5	-16	-5%
CC(=O)N1CCN(c2ccc(NC(=O)c3cccc([N+](=O)[O-])c3)cc2)CC1	nt	5	2.3	nt	nt
COc1ccccc1NC(=O)Nc1nc(CC(=O)Nc2ccc(F)cc2)cs1	nt	-4	-1.0	nt	nt
Nc1cc(N)nc(SCC(=O)NCC2CCCO2)n1 (centres undefined)	7	-1	-5.3	-31	-11%
Cn1ncc2c(NCc3ccccc3)nc(NCCCO)nc21	nt	3	1.0	nt	nt
CC(=O)c1c(C)[nH]c(C(=O)Nc2ccc(C)cn2)c1C	-4	-5	-1.6	-44	-1%
CC(=O)Nc1ccccc1OCC(=O)NC(C)c1ccc(F)cc1 (centres undefined)	-2	2	-0.1	-29	nt
CCS(=O)(=O)Nc1ccc(C2=NN(C(=S)Nc3ccccc3)C(c3ccco3)C2)cc1 (centres undefined)	-3	80	-2.9	-8	6%
CCCCOc1ccc(CNn2c(C)nc3ccccc3c2=O)cc1	-4	9	2.1	-51	0%
COc1ccc(NC(=O)CCN2CCCCCC2)c(OC)c1	11	1	2.8	-23	-6%
O=S(=O)(Nc1ccncc1)c1ccccc1	4	0	1.9	-20	-6%
O=C(Nc1ccccc1)Nc1ccc(F)c([N+](=O)[O-])c1	-3	55	2.4	-4	-3%
O=C(NC(=S)NCCc1ccccc1)c1ccco1	0	-6	1.9	7	nt
Cc1noc(C)c1S(=O)(=O)N1CCC(C(=O)N2CCC(N3CCCCC3)CC2)CC1	6	-2	-0.8	-10	nt	Arbovirus anti repeat=1
CC(NC(=O)c1cccc(OC2CCN(C(=O)C3CC3)CC2)c1)c1ccc(F)cc1 (centres undefined)	nt	-1	3.9	nt	nt
O=C(NCc1ccccc1)c1ccccc1OCC(=O)N1CCCCC1	0	0	-4.3	-1	-3%

Continuation:
SMILES	Arbovirus anti	Mtb bLac sens	RecA intein inh	YopH PTP inh	Mtb H37Rv	others
CCOc1cccc(/C(O)=C2/C(=O)C(=O)N(CCN3CCOCC3)C2c2cccnc2)c1 (centres undefined)	1	0	-3.7	-18	-4%
CC1(C)N=C(/C=N/O)C=[N+]1[O-]	3	-2	0.4	-26	-2%
c1ccc(-c2cnc(-c3ccccc3)nc2)cc1	-3	7	nt	-5	-6%
CCSc1ccc([C@@H]2[C@@H]3C(=O)N(CC)C(=O)[C@@H]3[C@]3(C(=O)OC)CCCCN23)cc1	nt	-4	8.2	nt	nt
CCC(=O)Nc1cccc(C2=NOC3(C2)C[C@@H](C(N)=O)N(C(=O)COc2ccc(Cl)cc2)C3)c1 (some centres undefined)	nt	-8	2.5	nt	-13%
COc1ccccc1C(=O)COC(=O)CNC(=O)c1ccc(Br)o1	nt	-4	1.1	nt	nt
CCN(CC(O)COCc1ccc(Cl)cc1)C1CCCCC1 (centres undefined)	-16	-4	0.7	nt	1%
COc1cccc(NC(=O)CSc2nc3c(c(=O)n2C)SC(C)C3)c1 (centres undefined)	5	3	1.8	-30	-1%
CCOC(=O)N1CCN(Cc2nc3cc(NC(=O)c4cccs4)ccc3n2C)CC1	nt	0	-0.1	nt	nt
CCOC(=O)c1c(C)[nH]c(C(=O)COC(=O)CNC(=O)c2ccc(Cl)cc2)c1C	-5	-4	-1.2	-26	-4%
COc1ccc(C(=S)N2CCOCC2)cc1OC(=O)c1cc([N+](=O)[O-])c(C)c([N+](=O)[O-])c1	5	-2	17	-28	1%
O=C(CSc1ccc(Cl)cc1)N1N=CCC1c1ccccc1 (centres undefined)	nt	2	5.5	nt	2%
C=CCNC(=O)c1csc(-c2ccccc2)n1	-3	8	-1.4	-28	-4%
Cc1cc(C)c(S(=O)(=O)NCc2ccc3c(c2)OCO3)c(C)c1	nt	-5	2.7	nt	nt
COc1ccccc1Sc1nc(-c2ccccc2)ncc1OC	-6	7	nt	nt	-2%
COc1cc(CN2CCN(C(=O)c3cccc4ccccc34)CC2)cc(OC)c1OC	nt	1	-0.3	nt	nt
CCOc1ccccc1NC(=O)C(=O)CC(=O)c1cccc(OC)c1	nt	4	-1.8	nt	nt
COCCCn1c(SCC(=O)Nc2cccc(C(=O)OC)c2)nnc1-c1ccncc1	6	-5	-0.8	-21	-7%
O=C(CN(Cc1ccc(F)cc1)C(=O)c1csnn1)NCc1ccccc1	nt	-3	-0.5	nt	nt
CN(C)S(=O)(=O)Oc1ccsc1C(=O)Nc1ccccc1Cl	-8	8	nt	-9	-4%
CC1(C)Cc2c(c(N3CCOCC3)nc3sc4c(NCCN5CCOCC5)nnnc4c23)CS1	nt	7	-1.6	nt	3%
Cc1ccc(C(=O)N(Cc2cccs2)C2CCS(=O)(=O)C2)cc1 (centres undefined)	nt	3	13	nt	nt
COc1ccc(NC(=O)CC2C(=O)N(C)C(=S)N2CCc2ccc(F)cc2)cc1 (centres undefined)	nt	-5	nt	nt	3%
O=C(Nc1scc(-c2cccs2)c1C(=O)O)c1cccs1	50*	-8	1.1	-14	-2%	Arbovirus anti repeat=55*
CCOC(=O)Nc1ccc(NS(=O)(=O)c2ccc(C)cc2)cc1	-13	1	-1.1	11	2%

An excerpt of the results above, for reference:
SMILES	Arbovirus anti	Mtb bLac sens	RecA intein inh	YopH PTP inh	Mtb H37Rv	others
CCOc1cccc(/C(O)=C2/C(=O)C(=O)N(CCN3CCOCC3)C2c2cccnc2)c1 (centres undefined)	1	0	-3.7	-18	-4%
CC1(C)N=C(/C=N/O)C=[N+]1[O-]	3	-2	0.4	-26	-2%
c1ccc(-c2cnc(-c3ccccc3)nc2)cc1	-3	7	nt	-5	-6%
CCSc1ccc([C@@H]2[C@@H]3C(=O)N(CC)C(=O)[C@@H]3[C@]3(C(=O)OC)CCCCN23)cc1	nt	-4	8.2	nt	nt
CCC(=O)Nc1cccc(C2=NOC3(C2)C[C@@H](C(N)=O)N(C(=O)COc2ccc(Cl)cc2)C3)c1 (some centres undefined)	nt	-8	2.5	nt	-13%
COc1ccccc1C(=O)COC(=O)CNC(=O)c1ccc(Br)o1	nt	-4	1.1	nt	nt
CCN(CC(O)COCc1ccc(Cl)cc1)C1CCCCC1 (centres undefined)	-16	-4	0.7	nt	1%
COc1cccc(NC(=O)CSc2nc3c(c(=O)n2C)SC(C)C3)c1 (centres undefined)	5	3	1.8	-30	-1%
CCOC(=O)N1CCN(Cc2nc3cc(NC(=O)c4cccs4)ccc3n2C)CC1	nt	0	-0.1	nt	nt
CCOC(=O)c1c(C)[nH]c(C(=O)COC(=O)CNC(=O)c2ccc(Cl)cc2)c1C	-5	-4	-1.2	-26	-4%
COc1ccc(C(=S)N2CCOCC2)cc1OC(=O)c1cc([N+](=O)[O-])c(C)c([N+](=O)[O-])c1	5	-2	17	-28	1%
O=C(CSc1ccc(Cl)cc1)N1N=CCC1c1ccccc1 (centres undefined)	nt	2	5.5	nt	2%
C=CCNC(=O)c1csc(-c2ccccc2)n1	-3	8	-1.4	-28	-4%

(more compounds)
SMILES	Arbovirus anti	Mtb bLac sens	RecA intein inh	YopH PTP inh	Mtb H37Rv	others
C=CCn1c(O)c(C(C)=NC2CCN(Cc3ccccc3)CC2)c(=O)[nH]c1=O	nt	-9	2.7	nt	-5%
O=S(=O)(NCCS(=O)(=O)N1CCN(c2ccccc2)CC1)c1ccc(F)cc1	nt	2	-0.6	nt	nt
CCCC(=O)Nc1nc(C)c(-c2csc(Nc3cc(OC)ccc3OC)n2)s1	-16	89	8.3	3	11%
Cc1ccc2cccc(SCC(=O)Nc3ccc(F)cc3)c2n1	nt	7	0.7	nt	nt
COc1ccc(Cl)cc1NC(=O)C1CCN(C(=O)C2CC(=O)N(c3ccc(C)cc3)C2)CC1 (centres undefined)	nt	5	1.3	nt	nt
O=C1c2ccccc2C(=O)N1COc1ccc(S(=O)(=O)N2CCOCC2)cc1[N+](=O)[O-]	nt	5	0.1	nt	nt
CC(=O)N1CCC(C(=O)OCc2ccc(Cl)cc2)(c2ccccc2)CC1	nt	7	7.9	nt	nt
Cc1cc(Cl)ccc1NC(=S)NCc1ccc(F)cc1	nt	1	8.5	nt	nt
Cc1cc(C(=O)OCC(=O)N2CCc3ccccc32)c(C)o1	-4	-7	-2.4	-29	3%
COc1ccc(-n2c(=O)cc(N3CCc4ccccc43)[nH]c2=O)cc1	5	-7	-2.2	-15	2%
